Screening data from PubChem BioAssay.
Yeast UUG start: yeast start codon fidelity modulation; AID 602363; 350,000 compounds, 0.13% hits; S. cerevisiae UUG-firefly luciferase reporter, luminescence/redox ratio; activity score, % at 18.7 µM;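 active = replicate mean at a twofold rise or more, about +100% in these data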;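 note: firefly luciferase made from a UUG start codon reports start codon fidelity; reporter light over untreated wells divided by growth signal over untreated wells; some hits fall short of that in this replicate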
PABP polyA inh: PABP-poly(A) binding inhibition; P11940; PABP-poly(A) RNA binding, fluorescence polarization; inhibition, % at 35 µM; 290,000 compounds, 1% hits;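 active = 50% or more with normal probe brightness, or confirmed in later tests; about a fifth of its hits are not listed in these tables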;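 note: calls also rest on retests at 20 µM and on dose response follow-up; controls were probe without protein and protein plus probe with vehicle; some compounds called inactive have numbers as strong as hits; many hits fall short of the cut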
Target sequence (P11940 whole entry, looked up): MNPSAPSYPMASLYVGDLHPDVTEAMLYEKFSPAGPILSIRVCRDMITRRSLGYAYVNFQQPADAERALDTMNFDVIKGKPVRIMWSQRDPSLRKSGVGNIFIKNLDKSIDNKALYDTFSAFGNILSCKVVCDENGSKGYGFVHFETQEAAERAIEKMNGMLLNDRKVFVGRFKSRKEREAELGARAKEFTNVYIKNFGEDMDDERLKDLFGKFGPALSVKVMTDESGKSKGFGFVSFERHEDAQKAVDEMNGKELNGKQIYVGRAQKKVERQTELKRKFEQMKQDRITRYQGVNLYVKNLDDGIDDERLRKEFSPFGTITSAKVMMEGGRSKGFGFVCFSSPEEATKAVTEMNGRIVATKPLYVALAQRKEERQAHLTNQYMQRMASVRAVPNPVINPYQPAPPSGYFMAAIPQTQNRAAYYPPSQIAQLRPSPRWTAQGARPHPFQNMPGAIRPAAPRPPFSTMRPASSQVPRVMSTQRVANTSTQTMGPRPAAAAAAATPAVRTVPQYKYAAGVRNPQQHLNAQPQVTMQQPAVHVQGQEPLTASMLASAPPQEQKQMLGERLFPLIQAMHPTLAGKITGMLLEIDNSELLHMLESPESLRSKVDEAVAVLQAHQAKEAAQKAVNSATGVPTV
eIF4H inh: inhibitors of RNA binding by human eIF4H; inhibition, % at 35 µM; 290,000 compounds, 0.94% hits; Q15056; eIF4H fluorescence polarization binding assay;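 active = 50% or more with normal probe brightness, or confirmed in later tests; about a fifth of its hits are not listed in these tables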;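 note: calls also rest on retests at 20 µM and on dose response follow-up; 0% = protein and probe with vehicle and 100% = probe without protein; strong numbers were not always called active; many hits fall short of the cut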
MT1-MMP act inh: inhibitors of human MT1-MMP activation | GFP/RFP ratio change, % at 20 µM | AID 651647 | 360,000 compounds, 0.061% hits | HT1080 RFP-PRO-GFP cells, GFP/RFP ratio fluorescence, overnight; percent of plate control window, DMSO zero | P50281;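 active = GFP/RFP ratio change of at least 30% with cell ATP level not reduced by more than half and red fluorescence within 50% of control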; note: strong numbers were not always called active
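system = RFP-PRO-GFP reporter HT1080 cells | dosing = 20 µM single dose, 1% DMSO | timing = overnight cell settling, then overnight compound exposure, 37 °C, 5% CO2 | read-out basis = GFP/RFP fluorescence ratio | controls = DMSO and RFP-L50D-GFP cell wells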
CSC inhib: cancer stem cell inhibition; cancer stem cell-like cells viability, luminescence; inhibition, % at 7.5 µM; 300,000 compounds, 1.1% hits; AID 2717;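 active = mean at 75% or more and at least half the replicates too; tested in HMLE shEcad cells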;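 note: 0% = median of negative and 100% = median of positive control wells; the first replicate is given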
HIV Env fusion: inhibitors of HIV Env-mediated cell fusion; HeLa-JRFL Env/CEM21 cell fusion, luciferase; inhibition, % at 12.3 µM; 360,000 compounds, 1.1% hits;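 active = mean replicate inhibition score of at least 50 and every replicate individually at or above 50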;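 note: 0% = plate neutral controls and 100% = maraviroc near 300 nM; one replicate is shown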
Rce1 inh: blocks yeast Ras-converting enzyme; Q03530; yeast membranes, quenched prenylated peptide cleavage fluorescence; calls only; 290,000 compounds, 0.27% hits; AID 2563;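 active = fall in fluorescence gain of 50% or more versus controls, with final raw signal at or below 3038400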;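 note: plate controls were neutral control wells for no effect and wells lacking membranes for full effect; tested at 10 µM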
eIF4H inh retest: also measured in eIF4H inh; calls as there; inhibition, %; compound at 20 µM; confirmation average;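 mean of two retest wells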
PABP polyA inh retest: second read-out of PABP polyA inh, no call of its own (marks repeat the call); inhibition, %; compound at 20 µM; confirmation repeats;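 mean of two retest wells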
MT1-MMP act inh RFP: second read-out of MT1-MMP act inh, no call of its own (marks repeat the call); RFP signal change, %; measured here: RFP expression control read;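 0 = vehicle wells; hits needed this value within 50% of zero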
* marks the source's active call; other numbers are inactive results; i = inactive; nt = no result given. This is a subset; count on the stated rates, not on these rows.

SMILES	Yeast UUG start	PABP polyA inh	eIF4H inh	MT1-MMP act inh	MT1-MMP act inh RFP	CSC inhib	HIV Env fusion	Rce1 inh	others
Cc1cccc(NC(=S)NNC(=O)c2nn(C)cc2Cl)c1	-26.7	-5.2	4.7	-1.1	1.8	-3.5	nt	i
Cc1cc(NC(=O)C(C)SCC(=O)N(C)CC(=O)Nc2ccc(Br)cc2C)no1 (stereo unspecified)	-8.3	5.1	-8.1	-4.3	-6.0	-6.3	nt	i
Cc1ccc(-n2[nH]c(C)c(/C=C3/C=Nc4ccccc43)c2=O)cc1C	-10.7	-4.9	-7.7	7.3	4.9	-11.0	nt	i
CC(=O)c1ccc(NC(=O)COc2ccccc2C(=O)Nc2ccccc2)cc1	-2.8	7.2	3.3	1.7	-5.9	-3.9	4.2	i
CN(CC(=O)Nc1cc(S(=O)(=O)N2CCCCCC2)ccc1Cl)Cc1ccc2c(c1)OCO2	1.0	nt	nt	-6.5	-16.5	3.0	39.7	nt
COc1ccc(NC(=O)c2ccc(COc3ccccc3)o2)cc1	-25.5	7.2	2.0	2.2	-2.0	-7.0	24.7	i
CCCC(C)NC1=NCCCCC1 (stereo unspecified)	5.2	-2.5	-7.8	2.4	5.6	-1.9	nt	i
CS(=O)(=O)Nc1cccc(C2=NN(S(C)(=O)=O)C(c3ccccc3)C2)c1 (stereo unspecified)	-0.9	7.0	5.0	0.6	0.2	1.8	4.5	i
CC(C)C1Nc2ccc(C(=O)O)cc2C2C=CCC21 (stereo unspecified)	nt	66.0	95.7*	-8.4	8.1	-4.3	3.3	i	eIF4H inh retest=75.3*;PABP polyA inh retest=41.3
COC(=O)[C@]1(Cc2ccccc2)N[C@H](CN(C)C(=O)Nc2ccc(F)cc2)[C@@H]2C(=O)N(Cc3ccccc3)C(=O)[C@@H]21	-1.5	nt	nt	3.3	-8.3	-14.6	-50.2	nt
CCOc1ccc(CCNC(=O)Cn2ccc3cc(S(=O)(=O)N4CCCC4)ccc32)cc1	-8.8	-0.8	-2.1	-5.3	-6.2	2.9	23.4	i
O=C(Nc1sc2c(c1C(=O)O)CCC2)c1cccs1	nt	3.0	-3.9	-2.6	0.5	2.3	nt	i
CC(=O)/C=C\c1ccc(OC(=O)c2cccnc2)cc1	-10.9	-3.1	6.3	-6.8	1.6	-12.8	-4.8	i
COc1ccc(NC(=O)CN(c2ccccc2)S(=O)(=O)N(C)C)cc1Cl	-13.0	18.4	-15.3	9.7	2.4	-0.1	-14.8	i
O=c1oc2ccccc2c2c1ncn2-c1ccccc1	1.4	-1.1	7.1	2.9	0.0	-19.8	-6.8	i
CCOC(=O)Cc1cc(=O)n2[nH]c(C)c(-c3ccc(OC)cc3)c2n1	16.4	-2.0	9.8	8.4	9.5	1.1	nt	i
COc1ccccc1OCCOc1ccc(C(=O)c2ccccc2)cc1	nt	-1.2	1.0	1.1	3.9	4.2	38.9	i
CC(OC(=O)CCN=C1NS(=O)(=O)c2ccccc21)C(=O)Nc1ccc(F)cc1Cl (stereo unspecified)	nt	nt	nt	0.2	3.3	-0.6	nt	i
CCOC(=O)C(C)Sc1nc2c(c(=O)[nH]c(=O)n2C)n1CCc1ccccc1 (stereo unspecified)	0.7	4.2	7.6	5.4	3.1	-5.9	nt	i
Cc1ccc(NC(=O)Cn2nnc(C(=O)Nc3ccc(C)c(C)c3)c2N)cc1	nt	-7.0	-10.4	-2.7	-4.9	-4.8	-53.3	i
CC12CCC(=O)N1C(C(=O)OCC(=O)Nc1cc(S(=O)(=O)N3CCCCC3)ccc1Cl)CS2 (stereo unspecified)	nt	-11.2	10.3	4.8	1.7	-3.1	1.5	i
CCOC(=O)CSc1nnc(CNc2cccc(Cl)c2)n1-c1ccccc1	nt	-10.7	-5.9	3.5	-0.1	nt	-69.0	i
Cc1ccc(S(=O)(=O)NC(C)C(=O)Nc2ccc(C(N)=O)cc2)cc1 (stereo unspecified)	-16.5	-8.3	2.0	1.9	-5.5	7.2	-288.2	i
CCCCN(C(=O)CC1CCCCC1)c1c(N)n(CC(C)C)c(=O)[nH]c1=O	-1.0	nt	nt	-0.8	2.6	nt	-1.7	nt
COc1cc2c(cc1NC(=O)COC(=O)[C@@H](NS(=O)(=O)c1cccc(Cl)c1)C(C)C)oc1ccccc12	nt	2.3	5.6	-5.5	-6.5	10.4	16.2	i
The listing continues:
SMILES	Yeast UUG start	PABP polyA inh	eIF4H inh	MT1-MMP act inh	MT1-MMP act inh RFP	CSC inhib	HIV Env fusion	Rce1 inh	others
Oc1c(C(c2ccccc2)N2CCCCC2)sc2ncnn12 (stereo unspecified)	6.9	4.5	-5.6	-3.3	1.6	-2.5	1.7	i
CC(=O)Nc1nc2ccc(NC(=O)c3ccco3)cc2s1	-5.8	-7.9	-2.7	3.8	1.8	6.5	nt	i
Cc1ccccc1-n1c(C)cc(/C=C2/C(=N)N3C(c4ccccc4)=CSC3=NC2=O)c1C	-7.1	18.6*	86.0	-38.4	-17.1	64.2	-1.6	i	eIF4H inh retest=30.2;PABP polyA inh retest=66.0*
COCCNC(=O)/C(C#N)=C/c1ccc(-c2ccc(OC)cc2[N+](=O)[O-])o1	nt	28.3	47.9	-4.4	3.8	4.5	nt	i
CCc1cc2c(=O)n(CC(=O)NC3CCCCC3)cnc2s1	8.9	4.0	-10.4	5.2	3.3	8.6	-23.0	i
CCOCCCNC(=O)C1CCN(S(=O)(=O)c2ccc3nc4c(c(C(=O)O)c3c2)CCCCC4)CC1	-12.2	9.7	-10.0	3.0	6.4	1.7	-7.6	i
COc1cc(OC)c(C2=NOC(C(=O)NCc3cccs3)C2)cc1Cl (stereo unspecified)	nt	7.5	-8.9	-2.4	-13.4	42.1	25.4	i
CCOc1ccc(C(=O)N(Cc2ccccc2)c2cccc(C)c2)cc1OC	3.1	10.1	2.8	2.2	-5.4	7.6	22.2	i
Cc1[nH]ncc1Nc1c(C(C)C)cccc1C(C)C	-17.1	nt	nt	1.5	0.4	nt	-0.6	nt
O=C(C[C@H]1C/C=C\CC[C@H](Cc2ccc(F)cc2)C(=O)OC[C@H]2CCCN2C1=O)N[C@H](CO)Cc1ccccc1	18.0	nt	nt	-2.8	1.9	nt	-88.5	nt
CCC1CCC/C1=N\NC(=O)c1ccccc1C (stereo unspecified)	-19.2	nt	nt	4.3	4.5	-1.3	-1.7	i
CCCCCOC(=O)Nc1ccc(S(=O)(=O)Nn2cnnc2)cc1	-19.9	1.5	0.7	1.1	1.9	-1.6	nt	i
CC(=O)C1=C(O)C(=O)N(Cc2ccccc2)C1c1ccc(Cl)cc1 (stereo unspecified)	-15.9	2.1	-2.1	2.5	1.3	-12.6	12.5	i
CCOC(=O)c1ccc(S(=O)(=O)N2CCN(CCc3ccncc3)CC2)cc1	1.5	nt	nt	0.0	-1.0	-5.5	nt	nt
COc1cc(C(=S)N2CCOCC2)cc(OC)c1OC(=O)c1ccc(C)cc1	-18.3	-15.6	-2.3	-0.1	-3.0	-3.4	0.3	i
Cc1c(O)ccc(C(=O)COc2ccccc2F)c1O	-13.8	10.6	-1.2	3.4	2.4	16.4	-22.7	i
Cc1cccc(NC(=O)c2cc3c(s2)-c2c(C)cccc2OC3)n1	-13.1	-0.3	0.0	-0.7	-23.0	30.3	13.2	i
CSCCC1NC2(C(=O)Nc3c2ccc(Cl)c3C)[C@@H]2C(=O)N(C3CCCC3)C(=O)[C@H]12 (stereo partly specified)	-16.1	-1.0	8.3	-6.3	-3.5	-1.8	40.6	i
CN(C)S(=O)(=O)c1cccc(C(=O)OCC(=O)NC2CCCc3ccccc32)c1 (stereo unspecified)	6.2	-5.0	-4.9	-0.8	1.1	1.5	nt	i
COc1ccc(CCNC(=O)c2ccc(N(C)S(=O)(=O)c3ccc(C)cc3)cc2)cc1	nt	17.0	-3.9	-1.3	-15.9	18.2	6.8	i
Cc1cccc(NC(NC(=O)c2cccnc2)C(Cl)(Cl)Cl)c1 (stereo unspecified)	-12.4	-0.8	8.0	3.7	-1.4	2.2	32.2	i
Cc1ccc(-c2nnn(CC(=O)N(CCN3CCOCC3)C(C(=O)NC3CCCC3)c3ccncc3)n2)o1 (stereo unspecified)	-9.5	-7.7	0.8	0.4	2.6	-12.4	11.7	i
Cc1cc(C)nc(-n2nc(C)c3c(C(=O)O)cc(-c4cccc(Br)c4)nc32)n1	nt	3.5	-5.5	-1.1	2.2	-4.8	2.5	i
COc1ccc(CN(C(=O)CN2C(=O)COc3ccccc32)C2CCCC2)c(OC)c1	0.2	-1.2	-1.8	-4.2	-1.3	4.8	-18.6	i
COc1ccc(Br)cc1CN(C)C(=O)Cc1ccc(S(=O)(=O)N2CCOCC2)s1	-6.2	nt	nt	-1.2	-3.8	1.8	10.2	i
Remaining list, next part
SMILES	Yeast UUG start	PABP polyA inh	eIF4H inh	MT1-MMP act inh	MT1-MMP act inh RFP	CSC inhib	HIV Env fusion	Rce1 inh	others
Cc1c(C)[n+](=O)c(-c2ccc(F)cc2)c(C)n1[O-]	-19.0	-8.3	-6.3	-0.9	-0.3	-16.5	0.3	i
CCc1ccc2nc3sc(C(=O)O)cc3cc2c1	nt	-1.0	-3.5	2.9	2.1	7.2	-18.4	i
CC(NC(=O)CN1CCN(c2ccc(Cl)cc2)CC1)c1ccccc1 (stereo unspecified)	-9.6	1.2	9.2	2.9	-4.3	-5.3	20.2	i
CC(Sc1c[nH]c2ccccc12)C(=O)O (stereo unspecified)	-14.3	6.9	-0.2	-3.2	6.1	-10.9	-32.8	i
O=C1C2ON(c3ccccc3)C(c3cccnc3)C2C(=O)N1c1ccc(Cl)c(Cl)c1 (stereo unspecified)	1.4	3.1	13.3	7.9	12.1	-10.7	-3.5	i
O=C(CN1CCN(c2ccc(O)cc2)CC1)NCC(=O)Nc1ccc(F)c(F)c1F	6.1	nt	nt	nt	nt	13.6	-14.6	nt
Cc1ccnc(N2C(=O)c3ccccc3C2=O)c1	-13.9	-8.7	-2.2	-0.9	2.0	-7.2	11.6	i
C=C(C)C(=O)Nc1ccc2nn(-c3ccccc3O)nc2c1	-24.4	nt	nt	1.6	-0.5	nt	-93.0	nt
O=C(c1ccoc1)N1CCN(c2cc(-c3ccccc3)nc3cc(-c4ccccc4)nn23)CC1	-12.6	nt	nt	6.6	-25.9	nt	35.8	nt
COc1ccccc1NC(=O)Cn1nnc(-c2ccccc2NC(=O)c2cccs2)n1	-7.1	-17.3	-3.7	7.1	3.1	nt	nt	i
Cc1n[nH]c(=O)c2c(NC(=O)CSc3nnnn3-c3ccccc3)oc(C)c12	-27.6	nt	nt	5.6	0.6	3.1	-5.7	i
CCOc1ccc(Br)cc1C(=O)N/N=C/c1c[nH]c2ccccc12	-18.1	11.2	-0.9	1.1	-3.0	5.0	13.8	i
OC(COc1ccc2cc(Br)ccc2c1)CN1CCN(c2ccccn2)CC1 (stereo unspecified)	-8.5	-2.5	-0.8	7.8	1.5	18.6	47.7	i
C/C(=N\Nc1ccc(C#N)cc1[N+](=O)[O-])c1ccc(O)cc1	nt	8.0	6.7	14.6	0.0	7.9	5.5	i
O=c1oc2ccccc2n1CSc1nc2ccccc2s1	-13.9	-2.9	3.1	-1.3	-3.7	-0.9	nt	i
COC(=O)Cc1c(C)nc2nc(-c3ccc(C)cc3)[nH]n2c1=O	nt	11.2	-1.1	9.3	5.5	-12.8	nt	i
